# Source: PubChem (several laboratories)
# ALR H2O2 inh – inhibitors of human ALR sulfhydryl oxidase, primary screen, biochemical, H2O2 detection, HRP-luminol luminescence, single point; actives 3.8% (n = 290,000); purified ALR, DTT oxidation; inhibition, % (test concentration not listed);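 active = mean and each replicate at 75% or more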;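 note: stock transfer was 7.5 nL into about 7.5 µL; 0% = neutral wells and 100% = wells with inactivated enzyme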
# Target sequence (P55789 whole entry, looked up): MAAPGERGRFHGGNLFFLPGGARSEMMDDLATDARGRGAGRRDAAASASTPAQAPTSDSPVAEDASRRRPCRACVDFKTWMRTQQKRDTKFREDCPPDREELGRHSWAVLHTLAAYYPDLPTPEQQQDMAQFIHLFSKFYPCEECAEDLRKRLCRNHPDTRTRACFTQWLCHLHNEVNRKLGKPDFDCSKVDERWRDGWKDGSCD
# LANA-H2A inh – blockers of LANA interaction with H2A/H2B – biochemical, FP readout, HTS, primary screen; cell-free LANA-H2A/H2B peptide, fluorescence polarization; actives 0.6% (n = 320,000); AID 2629, 2010; inhibition, % (no concentration beside the values); in the data active = inhibition mostly above about 10%, no sharp cut-off; inactive = mostly below about 6.7%;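 note: stock transfer was 7.5 nL into about 10 µL; 0% = median of vehicle wells and 100% = median of positive control wells; one replicate is shown; the record names a cut of 25% in any replicate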
# Beta2AR agonist – beta2AR agonists driving receptor internalization, primary screen, cell-based, FAP fluorogen, flow cytometry. Beta-2 adrenergic receptor (Homo sapiens), P07550. Am2.2-beta2AR cells; reference of the scale not given here. response, % (concentration not given with the values). actives 0.43% (n = 340,000). AID 504454, 2011;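 active = response above a set limit, near 3 SD of response in nonfluorescent compounds, cut at about 42% in these data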;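 note: stock transfer was 100 nL into about 11 µL; a reference agonist was the positive control; negative values mostly stem from fluorescent compounds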
# Target sequence (P07550 whole entry, looked up): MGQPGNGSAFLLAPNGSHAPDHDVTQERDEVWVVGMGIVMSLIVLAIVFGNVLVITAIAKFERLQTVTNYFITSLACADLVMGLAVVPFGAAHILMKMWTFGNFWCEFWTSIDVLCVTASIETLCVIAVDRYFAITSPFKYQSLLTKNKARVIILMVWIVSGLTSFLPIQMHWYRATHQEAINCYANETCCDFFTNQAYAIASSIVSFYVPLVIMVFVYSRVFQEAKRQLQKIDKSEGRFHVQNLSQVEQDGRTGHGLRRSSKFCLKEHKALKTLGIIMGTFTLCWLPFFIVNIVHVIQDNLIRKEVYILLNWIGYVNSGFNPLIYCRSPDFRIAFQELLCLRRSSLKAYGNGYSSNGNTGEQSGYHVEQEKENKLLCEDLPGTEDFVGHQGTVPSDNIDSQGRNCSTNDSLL
# FGF22 binding – binders of human FGF22 protein, primary screen, FGF22 synaptogenesis inhibitor project, biophysical, thermal shift, single point; recombinant FGF22 thermal shift, SYPRO orange fluorescence; percent of sucrose octasulfate shift, DMSO zero; calls only at 9.99 µM; actives 1.5% (n = 340,000); AID 651658, 2012;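 active = melting point raised past a set limit in the mean and every replicate; three in four hits are not shown here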
# HNF4A DNA FP – change in binding of human HNF4A to DNA, primary screen, biochemical, fluorescence polarization, FITC-DNA; actives 0.3% (n = 360,000); activity change, % at 10 µM; 1 h; Hepatocyte nuclear factor 4-alpha (Homo sapiens), P41235; AID 1224865, 2016; in the data active = activity change above about 30%, passing the limit was not always enough;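 note: controls were the assay level and a saturating level of protein; the project sought stronger binding though the title names inhibitors; some compounds called inactive have numbers as strong as hits; positive values seem to mean higher polarization but the record does not say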
# Ecoli growth – E. coli growth inhibition, primary screen, OD600 | Escherichia coli growth, 23 h; active compounds read low | actives 0.21% (n = 330,000) | AID 1053175, 2014 | OD600 absorbance (concentration not given with the values);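 active = OD600 absorbance below the run mean of sample wells minus 3.6 SD, in any replicate, cut at about 0.56 in these data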;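 note: stock transfer was 300 nL into about 60 µL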
# UCH37 inh – inhibitors of human UCH37 deubiquitinase, primary screen, biochemical, Ub-AMC cleavage, fluorescence. Ubiquitin carboxyl-terminal hydrolase isozyme L5 (Homo sapiens), Q9Y5K5. purified proteasome/UCH37. inhibition, % (test concentration not listed). actives 0.33% (n = 330,000);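 active = mean of two replicates above 20%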;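 note: 0% = compound-free wells with enzyme and 100% = wells lacking proteasome; stock transfer was 100 nL into about 20 µL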
# Target sequence (Q9Y5K5 whole entry, looked up): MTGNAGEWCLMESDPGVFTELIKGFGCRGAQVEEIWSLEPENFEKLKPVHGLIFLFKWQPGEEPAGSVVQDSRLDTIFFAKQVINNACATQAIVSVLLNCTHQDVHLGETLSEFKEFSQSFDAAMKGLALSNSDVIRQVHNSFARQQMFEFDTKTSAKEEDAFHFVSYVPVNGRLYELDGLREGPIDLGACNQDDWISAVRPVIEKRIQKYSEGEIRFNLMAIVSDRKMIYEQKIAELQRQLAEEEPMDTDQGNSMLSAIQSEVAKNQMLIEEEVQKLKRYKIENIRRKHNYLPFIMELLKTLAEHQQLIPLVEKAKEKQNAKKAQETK
#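 System: Proteasome-associated human UCH37 deubiquitinase; Input: 0.15 nM proteasome in added enzyme buffer; Also added: Ub-AMC substrate from 1 µM stock; Incubation: 30 min compound-proteasome preincubation then 25 min substrate reaction, room temperature; Detection: fluorescence, ex 355 nm, em 460 nm; Read-out: % inhibition of Ub-AMC cleavage fluorescence; Benchmarks: no-proteasome and no-compound wells.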
# Numbers without * were called inactive; i = inactive; · = not tested or not shown.
SMILES,ALR H2O2 inh,LANA-H2A inh,Beta2AR agonist,FGF22 binding,HNF4A DNA FP,Ecoli growth,UCH37 inh
CC(C)CC1C(C#N)=C(N)Oc2n[nH]c(-c3ccccc3)c21 (centres undefined),·,-2.4,-5,·,-2.1,·,·
CCNC(=O)COC(=O)/C=C/c1cccs1,-10,2.3,5,i,-6.3,0.67,6.5
COCc1nnc(NC(=O)CC(C)c2ccccc2)s1 (centres undefined),-10,0.3,-3,·,1.4,0.68,0.0
COc1cc(C2C(C#N)=C(SC)NC3=C2C(=O)CCC3)ccc1O (centres undefined),38,4.4,-5,i,-3.1,0.71,6.0
COc1ccc(-c2cc(-c3nnc(COC(=O)C4CC4)o3)c3ccccc3n2)cc1OC,-11,4.1,-2,·,3.0,0.74,-11
COC(=O)c1[nH]c2cccc(C)c2c1NC(=O)CN1CCCc2ccccc21,1,-0.1,-8,·,0.7,0.69,1.6
O=C(CN1CCN(S(=O)(=O)c2ccccc2)CC1)N1CCCCC1,-1,0.5,-8,i,-1.0,0.66,-2.7
N#Cc1cc(S(=O)(=O)c2ccc(Cl)cc2)c(N)[nH]c1=O,·,-5.8,-1,i,3.8,0.69,-5.3
COc1ccc(CCNC(=O)c2ccn[nH]2)cc1OC,18,1.6,2,·,2.2,0.72,1.2
COc1ccc(-c2cc(C(=O)Nc3ccc(Cl)cc3Cl)c3ccccc3n2)cc1OC,-1,5.9,8,·,2.7,0.68,-253
COc1cccc(NC(=O)COC(=O)CCSc2ccccc2)c1,16,-2.2,8,i,0.5,0.71,4.9
CCNc1nc(Cl)nc(NNC(=O)C(C)Oc2ccccc2)n1 (centres undefined),·,2.9,-6,·,-1.3,0.69,2.4
NC1=NC(c2cn[nH]c2-c2ccc(F)cc2)n2c(nc3ccccc32)N1 (centres undefined),-13,-4.1,·,i,·,0.68,-2.2
Cc1ccc(C(C(=O)NCc2ccc(F)cc2)N(C(=O)c2csnn2)C2CC2)o1 (centres undefined),-3,0.8,1,·,-3.9,0.67,1.3
O=S(=O)(O)c1cccc(N=Nc2c(O)ccc3ccccc23)c1,-25,0.1,-8,i,13,0.67,22*
c1cc2c3c(cccc3c1)-c1cnccc1-2,·,·,-7,i,-5.5,0.61,-34
CNC(=O)CSc1nc2nc(C)cc(C)n2n1,-1,1.2,3,·,-9.3,0.71,0.1
O=S(=O)(c1cccc2nsnc12)N1CCc2ccccc2C1,-2,-3.1,3,·,-3.4,0.72,4.4
O=C(O)C1C2C=CC3(CN(Cc4ccccn4)C(=O)C13)O2 (centres undefined),-9,0.9,0,·,1.2,0.73,0.8
S=C(NCc1ccncc1)Nc1ccc(Cl)cc1Cl,3,-5.0,-2,i,6.7,0.67,-0.6
O=C(NN1C(=O)C2C3CCC(O3)C2C1=O)c1ccc(Br)o1 (centres undefined),-4,-1.4,20,i,-3.5,0.66,0.5
O=C(COC(=O)c1cc(Cl)ccc1O)NNC(=O)c1ccccc1F,4,-2.2,-5,i,1.2,0.68,-15
O=C(c1sc2ccccc2c1Cl)N1CCN(c2ncccn2)CC1,-6,1.2,14,i,4.7,0.67,-0.9
CC(=O)N1CCN(S(=O)(=O)c2cccc(C(=O)N(Cc3ccccc3)c3cccc(C)c3)c2)CC1,4,-0.5,3,i,-3.4,0.68,3.8
Cc1nc2ccc(OC(=O)c3ccccc3)cc2s1,0,3.5,6,i,2.4,0.62,1.6
CCOC(=O)c1c(C)[nH]c(C(=O)OCCOc2ccc(Cl)cc2)c1C,2,2.6,1,i,-2.8,0.71,2.0
CCOC(=O)c1cccc(NC(=O)CCn2c(=O)oc3ccccc32)c1,-5,-2.0,2,i,1.9,0.7,2.7
O=C(COC(=O)c1ccccn1)NC(=O)c1ccccc1,-11,-3.7,2,i,-1.5,0.65,3.2
Cc1cc(C)c(NC(=O)CSc2nnc(-c3ccncc3)n2Cc2ccco2)c(Cl)c1,11,2.7,-6,·,4.7,0.73,3.3
O=C(O)CCSCC(=O)Nc1c(C(=O)C2CC2)oc2ccccc12,13,-0.7,6,·,-0.4,0.79,4.6
CC(C)CCNC(=O)C(c1ccco1)N(Cc1cccs1)C(=O)Cn1nnc2ccccc21 (centres undefined),·,·,0,·,2.3,0.75,-5.0
O=C1NC(=S)S/C1=C\c1ccc(SCc2ccccc2)o1,-1,·,5,·,35*,0.68,3.4
C[C@@H]1NC(=O)[C@H](CCC(N)=O)NC(=O)c2cc([N+](=O)[O-])cc(I)c2NCC[C@@H](C(N)=O)NC1=O,-9,-2.2,·,·,·,·,50*
CCCCNCCCOc1cccc(Cl)c1,-7,8.6,15,·,3.4,0.69,-1.3
COc1ccc(C(=O)CCC(=O)O)cc1,1,2.1,3,i,-3.1,0.74,3.0
CCOC(=O)c1c(CN2CCN(c3ccccc3)CC2)oc2cc(Br)c(O)cc12,-21,0.6,-9,i,-5.8,0.68,3.6
CN(c1ccccc1)S(=O)(=O)c1cccc(NC(=O)C2CCCO2)c1 (centres undefined),-13,-2.5,12,·,1.7,0.65,0.2
O=C1CCN(Cc2ccc(O)cc2)CCN1[C@H](CO)c1ccccc1,·,1.2,0,i,-2.2,·,0.3
CCc1c(C)nc(N)n2c(SCC(=O)Nc3ccccc3OC)nnc12,-1,2.2,10,i,0.8,0.69,3.0
O=C(NCc1ccccn1)Nc1cccc(Cl)c1Cl,-1,2.9,-2,i,-2.8,0.64,2.9
CCCCNc1nnc(Cc2ccc(Cl)cc2)c(=O)[nH]1,15,1.6,1,i,-5.0,0.68,4.8
Cc1ccc(NC(=O)C2=NNC(=O)CC2)cc1S(=O)(=O)Nc1ccc(SC(F)F)cc1,·,0.0,7,i,-1.2,0.7,4.8
COc1ccc(C(=O)N2CC3(CC(c4cccc([N+](=O)[O-])c4)=NO3)C[C@H]2C(=O)NCC(N)=O)cc1 (some centres undefined),-4,4.9,-6,i,-0.6,·,-1.1
COc1ccc(CCNc2c(C)c(C)nc3ncnn23)cc1,0,-0.1,-11,i,1.8,0.69,0.9
Cc1c(/C=N/NC(=O)c2ccccc2O)c2ccccn2c1C(=O)c1ccc(F)cc1,·,·,27,i,0.5,·,·
CSCCC(NC(=O)c1ccc(Cl)cc1)C(=O)OCC(C)=O (centres undefined),-5,2.3,6,i,-1.4,0.66,-1.0
COC(=O)c1ccc(CNC(=O)COC(=O)C2CC3C=CC2C3)cc1 (centres undefined),-1,-7.0,5,i,0.8,0.68,1.0
Cc1nc(CSc2ccc(Cl)cc2)cc(NCc2ccccc2)n1,-8,-1.4,-3,·,2.6,0.71,1.9
COc1ccc(/C=C2/N=C(SCC(=O)Nc3cc(C)on3)N(c3ccccc3)C2=O)cc1,1,·,0,i,2.0,0.72,-28
Cc1cc([N+](=O)[O-])nn1CC(=O)N(C)C1CCCCC1,·,-1.8,-5,i,-1.9,0.67,0.2
CN1CCN(/C=N/c2c(C#N)cnn2C)CC1,·,-2.6,2,·,0.6,·,·
COc1cc2c(cc1NC(=S)Nc1cccc3ccccc13)oc1ccccc12,15,-1.5,7,·,-1.7,0.71,-3.7
CC(C)CCNC(=O)c1ccc2c(SCC(=O)O)c3c(nc2c1)CCCC3,5,2.2,-7,i,-2.4,0.67,3.6
CC(=Nc1ccc(O)cc1)c1sc2ccccc2c1O,-2,-12,9,·,19,0.72,2.0
COC(=O)[C@]1(CC(C)C)N[C@H](c2ccc(-c3ccc(F)cc3)c(OC)c2)[C@@H]2C(=O)N(C)C(=O)[C@@H]21,5,0.8,1,i,4.8,·,6.2
N#CC(c1ccccc1)(c1ncc(C(F)(F)F)cc1Cl)N1CCOCC1 (centres undefined),-9,-1.3,-2,·,3.5,0.65,2.9
O=C(NCC(c1ccco1)N1CCN(c2ccccc2)CC1)c1ccc2c(c1)OCO2 (centres undefined),·,-6.4,0,i,1.5,0.67,-1.6
CC(C)Cn1c(N)c(C(=O)CSc2nnnn2C)c(=O)n(C)c1=O,-27,-0.6,-16,·,0.7,0.76,2.7
Cc1cc2cc(CCNS(=O)(=O)c3ccc(F)cc3)c(=O)[nH]c2cc1C,·,4.2,18,i,-2.0,0.7,-12
COc1ccc(O)c(C(=O)c2cnn(C(=O)c3cccc(N(C)C)c3)c2)c1,49,-1.8,12,i,-1.9,·,·

# Compound profiles (already shown):
# Cc1c(/C=N/NC(=O)c2ccccc2O)c2ccccn2c1C(=O)c1ccc(F)cc1 is entered as ALR H2O2 inh = ·; LANA-H2A inh = ·; Beta2AR agonist = 27; FGF22 binding = i; HNF4A DNA FP = 0.5; Ecoli growth = ·; UCH37 inh = ·
# CC(C)CCNC(=O)c1ccc2c(SCC(=O)O)c3c(nc2c1)CCCC3 is entered as ALR H2O2 inh = 5; LANA-H2A inh = 2.2; Beta2AR agonist = -7; FGF22 binding = i; HNF4A DNA FP = -2.4; Ecoli growth = 0.67; UCH37 inh = 3.6
# COc1ccc(O)c(C(=O)c2cnn(C(=O)c3cccc(N(C)C)c3)c2)c1 is entered as ALR H2O2 inh = 49; LANA-H2A inh = -1.8; Beta2AR agonist = 12; FGF22 binding = i; HNF4A DNA FP = -1.9; Ecoli growth = ·; UCH37 inh = ·

# Later entries:
SMILES,ALR H2O2 inh,LANA-H2A inh,Beta2AR agonist,FGF22 binding,HNF4A DNA FP,Ecoli growth,UCH37 inh
Cc1cccc(C)c1NC(=O)CN(C)C(=O)c1ccc(N2C(=O)CCC2=O)cc1,-1,0.7,-2,i,1.2,0.69,4.1
COc1ccccc1C(=O)OCC(=O)c1cccc([N+](=O)[O-])c1,-2,7.0,7,i,4.9,0.71,3.3
CC(NC(=O)c1ccccc1)c1nc2ccccc2n1Cc1ccc(C#N)cc1 (centres undefined),7,-3.1,0,·,-0.4,0.77,3.4
O=C(CSc1nc(=O)n(CCCN2CCOCC2)c2c1CCCC2)Nc1cccc([N+](=O)[O-])c1,5,4.2,-2,i,3.4,0.63,1.9
O=C(Nc1ccc(C(=O)O)cc1)/C(=C\C=C\c1ccccc1)NC(=O)c1ccccc1Cl,·,9.1,12,i,0.1,0.7,18
O=[N+]([O-])c1cccc(-c2nnc(CNC3CC3)o2)c1,-3,-0.7,4,i,0.9,0.66,0.4
CC(CCc1ccccc1)NC(=O)C(=O)NCCO (centres undefined),-12,0.1,3,·,2.2,0.64,-0.2
Cc1ccc(S(=O)(=O)NNc2nc3ccccc3nc2C(F)(F)F)cc1,33,0.3,-5,·,0.1,0.67,2.2
Cc1ccc(S(=O)(=O)N2CCCCCC2)cc1C(=O)Nc1cccnc1,-7,4.4,-5,i,-0.1,0.67,-2.2
CC1CCCCC1NC(=O)COC(=O)c1ccc(S(=O)(=O)NCc2ccco2)cc1 (centres undefined),-8,2.1,2,·,-6.0,0.68,1.9
O=C(COC(=O)CCC1CCCC1)Nc1cccc(S(=O)(=O)N2CCOCC2)c1,·,·,1,i,1.0,0.65,1.4
Cc1ccc(-c2nnn(CC(=O)N(Cc3ccco3)C(C(=O)NC(C)(C)C)c3cccs3)n2)o1 (centres undefined),-4,1.0,1,·,-2.6,0.72,1.5
COc1cc(C(=O)N2CCc3ccccc32)c([N+](=O)[O-])cc1OC,-6,-5.3,-3,i,1.8,0.72,0.4

# Molecules listed so far containing two or more sulfur atoms:
SMILES,ALR H2O2 inh,LANA-H2A inh,Beta2AR agonist,FGF22 binding,HNF4A DNA FP,Ecoli growth,UCH37 inh
O=S(=O)(c1cccc2nsnc12)N1CCc2ccccc2C1,-2,-3.1,3,·,-3.4,0.72,4.4
O=C1NC(=S)S/C1=C\c1ccc(SCc2ccccc2)o1,-1,·,5,·,35*,0.68,3.4
Cc1ccc(NC(=O)C2=NNC(=O)CC2)cc1S(=O)(=O)Nc1ccc(SC(F)F)cc1,·,0.0,7,i,-1.2,0.7,4.8

# Only part of the results is shown; count on the stated rates, not on these rows.
